High-throughput results deposited in PubChem by ICCB-Longwood Screening Facility, Harvard Medical School.
UCH37 DUB inh: human UCH37 deubiquitinating enzyme inhibition; Q9Y5K5; 330,000 tested, 0.33% active; purified proteasome/UCH37, Ub-AMC cleavage fluorescence; inhibition, % (test concentration not listed);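 active = mean of two replicates above 20%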;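 note: 0% = compound-free wells with enzyme and 100% = wells lacking proteasome; stock transfer was 100 nL into about 20 µL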
Target sequence (Q9Y5K5 whole entry, looked up): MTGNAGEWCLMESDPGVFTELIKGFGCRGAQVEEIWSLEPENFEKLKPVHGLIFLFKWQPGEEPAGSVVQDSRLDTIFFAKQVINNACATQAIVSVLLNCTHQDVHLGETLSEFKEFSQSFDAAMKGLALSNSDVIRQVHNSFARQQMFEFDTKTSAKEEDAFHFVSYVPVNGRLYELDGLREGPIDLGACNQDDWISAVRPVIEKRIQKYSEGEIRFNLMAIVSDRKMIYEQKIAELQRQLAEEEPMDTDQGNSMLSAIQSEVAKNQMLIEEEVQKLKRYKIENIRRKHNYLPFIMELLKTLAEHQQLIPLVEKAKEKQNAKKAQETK
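Test system – human UCH37 enzyme supplied as purified proteasome complex · Incubation – 30 min preincubation with enzyme, 25 min cleavage at room temperature · Detection – AMC fluorescence from Ub-AMC cleavage, excitation 355 nm, emission 460 nm · Benchmarks – no-proteasome wells (full inhibition) and compound-free wells (no inhibition)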
E coli growth: inhibitors of Escherichia coli growth; 330,000 tested, 0.21% active; AID 1053175; OD600 absorbance (no concentration beside the values); OD600, 23 h; active compounds read low;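 active = OD600 absorbance below the run mean of sample wells minus 3.6 SD, in any replicate, cut at about 0.56 in these data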;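 note: stock transfer was 300 nL into about 60 µL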
Starred values were filed as active, the others as inactive. The list is partial (hit frequency here may not be typical).

Every second line gives: UCH37 DUB inh	E coli growth
- CN(C)C=Nc1[nH]ncc1C#N
 : -1.9	0.68
- Cc1nc2ccccc2c(=O)n1N=Cc1ccc(O)cc1
 : 4.9	0.64
- CC(=NNc1cccc(C(F)(F)F)c1)c1ccc(O)cc1
 : 6.8	0.68
- N#CC(=NNc1ccccc1[N+](=O)[O-])C(N)=S
 : 2.7	0.66
- O=C(NN=CC1CC=CCC1)c1ccc(Br)o1 (stereo unspecified)
 : 2.2	0.74
- C=CCn1cnc2c(c1=O)c1nc3ccccc3nc1n2N=Cc1cccc(OC)c1
 : 1.1	0.66
- COc1cc(C=NO)cc(Br)c1OC
 : 2.4	0.68
- NC(=O)NN=Cc1coc2ccc(O)cc2c1=O
 : 1.8	0.62
- N#Cc1c(N=Cc2ccccc2)oc(-c2ccccc2)c1-c1ccccc1
 : -14	0.67
- CCOc1cc(C=NNC(=O)C2CCCC2)ccc1OC(C)C
 : 2.3	0.66
- CC1=CCC(C(=O)O)(C(=O)NN=Cc2cccs2)C(c2ccc([N+](=O)[O-])cc2)C1 (stereo unspecified)
 : 3.1	0.69
- CC(=NN=c1scc(C)n1Cc1ccco1)c1cccc([N+](=O)[O-])c1
 : 5.5	0.7
- O=C(O)c1cccc(NN=Cc2ccc(-c3ccccc3)cc2)c1
 : 1.6	0.69
- O=C(NN=Cc1cccc2ccccc12)c1ccccc1Cl
 : 3.1	0.68
- CC(=NNS(=O)(=O)c1ccc(Br)cc1)c1ccc2c(c1)OCO2
 : 1.6	0.69
- CCCC=NNC(=O)c1cccc(Br)c1
 : -0.4	0.73
- O=C(CC12CC3CC(CC(C3)C1)C2)NN=Cc1ccc([N+](=O)[O-])o1
 : 7.1	0.62
- O=C(CCC(=O)Nc1ccc(F)cc1)NN=Cc1cccc(Br)c1
 : 0.1	0.66
- O=C(O)c1ccc(NN=Cc2ccc(OC(=O)c3cccc(Cl)c3)cc2)cc1
 : -13	0.74
- COc1ccc(NC(=O)CC(C)=NNC(=O)C(=O)NC(C)C)c(OC)c1
 : -0.9	0.63
- Cc1c(NC(=S)NN=Cc2ccc(Br)cc2)c(=O)n(-c2ccccc2)n1C
 : 7.1	0.71
- O=C(NN=Cc1sc(=O)n(-c2ccccc2)c1Cl)c1ccncc1
 : 7.2	0.69
- NS(=O)(=O)c1ccc(NN=Cc2ccc(C(=O)O)cc2)c([N+](=O)[O-])c1
 : 14	0.7
- Cc1nc2ccc(Cl)cc2nc(C)c1=NO
 : 2.3	0.68
- CCOc1ccc2[nH]c(C(=O)NN=Cc3ccccc3OC)cc2c1
 : -12	0.67
- COc1ccc(C=NNC(=O)C(Cc2c[nH]c3ccccc23)NC(=O)OCC(C)C)cc1[N+](=O)[O-] (stereo unspecified)
 : -0.3	0.73
- CCOc1cc(C=NNC(=O)Cn2nc([N+](=O)[O-])cc2C)cc(Br)c1OCc1ccccc1C
 : 1.8	0.69
- Cc1ccc(NCC(=O)NN=C/C(Br)=C/c2ccccc2)cc1
 : 5.9	0.65
- O=C(NN=Cc1ccco1)C1CC1
 : -0.2	0.71
- O=C(NN=Cc1ccccn1)c1ccncc1
 : -1.6	0.66
- CCOc1ccc(C=NNC(=O)CN2CCCCCCC2)cc1
 : 0.3	0.65
- CN(C)c1ccc(C=NNC(=O)c2ccccc2Cl)cc1
 : 9.1	0.69
- O=C(COc1cccc2ccccc12)NN=Cc1ccccc1OCc1ccc(C(=O)O)cc1
 : 1.6	0.73
- Fc1ccc(NN=Cc2ccc(N3CCOCC3)cc2)c(F)c1
 : -6.4	0.66
- Cc1ccc(Nc2nc(N=CN(C)C)n[nH]2)cc1C
 : 2.8	0.71
- COc1ccc(O)c(C=NNC(=O)c2ccc(N3CCCC3=O)cc2)c1
 : 1.8	0.7
- COc1cc(C=NNC(=O)NC2CCCCC2)cc(OC)c1O
 : 1.5	0.73
- COC(=O)c1cnn(-c2ccc(F)cc2F)c1C=NNC(N)=S
 : 3.6	0.65
- CC(=NNC(=O)CSc1ccccn1)c1ccc([N+](=O)[O-])cc1
 : 1.8	0.69
- CCN(CC)S(=O)(=O)c1ccc(NN=C(C)c2ccncc2)c([N+](=O)[O-])c1
 : 0.1	0.68

A draw from above in order of heavy-atom count, rising.
Every second line gives: UCH37 DUB inh	E coli growth
- Cc1ccc(NCC(=O)NN=C/C(Br)=C/c2ccccc2)cc1
 : 5.9	0.65
- NS(=O)(=O)c1ccc(NN=Cc2ccc(C(=O)O)cc2)c([N+](=O)[O-])c1
 : 14	0.7
- COc1ccc(O)c(C=NNC(=O)c2ccc(N3CCCC3=O)cc2)c1
 : 1.8	0.7

Carrying on:
Every second line gives: UCH37 DUB inh	E coli growth
- O=C(O)COc1ccccc1C=NNC(=O)C(O)c1ccccc1 (stereo unspecified)
 : 6.6	0.65
- COc1cc(C(=O)NN=Cc2cc([N+](=O)[O-])cs2)cc(OC)c1OC
 : 7.2	0.67
- C(=Nn1cnnc1)c1cn(Cc2ccccc2)c2ccccc12
 : 0.0	0.69
- O=C(O)c1cc(C(=O)O)cc(-c2ccc(C=c3sc4nc5ccccc5n4c3=O)o2)c1
 : 22*	0.66
- CC(=NNC(=O)c1ccc(O)cc1)c1ccc(N2CCOCC2)cc1
 : 3.9	0.7
- O=C(C[n+]1ccccc1)NN=Cc1ccccc1C(F)(F)F
 : 5.1	0.67
- CC(C)(C)OC(=O)NN=Cc1ccc[nH]1
 : 6.4	0.72
- CCOc1ccc(-c2c(C(=O)NN=Cc3ccccc3)nnn2-c2nonc2N)cc1
 : 2.0	0.68
- COc1ccc2[nH]c(C(=O)NN=Cc3ccc(OC)c(O)c3)cc2c1
 : -19	0.61
- CN(C)c1cccc(C(=O)NN=Cc2ccoc2)c1
 : 4.7	0.68
- COc1ccccc1NCC(=O)NN=Cc1sccc1C
 : 2.4	0.68
- C=C(C)C1CC=C(C)C(=NNC(=O)c2ccc(NC(=O)CCC)cc2)C1 (stereo unspecified)
 : 0.8	0.67
- O=[N+]([O-])c1ccc(C2CCCCC2=NOCc2ccc(F)cc2)c([N+](=O)[O-])c1 (stereo unspecified)
 : -1.2	0.74
- Cn1cccc1C=NN1CCN(c2ccccn2)CC1
 : 5.9	0.68
- O=C(CNC(=O)c1ccco1)NN=Cc1cccs1
 : 6.4	0.66
- Cc1nn(C)c(C)c1C=NNC(=O)c1csc2ccccc12
 : 3.0	0.65
- COc1ccccc1N1CCN(N=Cc2cc(Br)ccc2F)CC1
 : 0.7	0.72
- O=C(NN=Cc1ccc(-c2ccc([N+](=O)[O-])cc2)o1)c1cccnc1
 : 13	0.68
- N#CCC(=O)NN=Cc1cn(Cc2ccc3ccccc3c2)c2ccccc12
 : -5.1	0.72
- Cc1nn(-c2ccccc2)c(Oc2ccc(F)cc2)c1C=Nn1cnnc1
 : 1.9	0.73

New compounds follow
Compound	UCH37 DUB inh	E coli growth
Nc1ccc(C(=O)NN=Cc2cn(Cc3ccccc3)c3ccccc23)cc1	-12	0.68
C=C(C)C1CC=C(C)C(=NNC(=O)COc2ccccc2C)C1 (stereo unspecified)	1.1	0.7
CC1(C)Cc2ccccc2C(NN=Cc2ccc(Cl)cc2)=N1	6.1	0.73
Cc1ccc(C2CC2C(=NO)c2ccc(F)cc2)cc1 (stereo unspecified)	1.4	0.6
CN1CCN(c2ccc([N+](=O)[O-])cc2C=NNC(=O)c2cccc([N+](=O)[O-])c2)CC1	0.7	0.68
C=CCc1cccc(C=NNC(=O)C(C)Nc2cccc(C)c2)c1O (stereo unspecified)	1.9	0.71
Fc1ccc(C=Nc2c(-c3ccc(F)cc3)nc3n2CCS3)cc1	5.7	0.75
CC(Oc1cccc(Cl)c1)c1ccnc2nc(N=CN(C)C)nn12 (stereo unspecified)	-41	0.68
CC1SC(=NN=Cc2ccco2)N(Cc2ccccc2)C1=O (stereo unspecified)	6.5	0.69
COc1cc(C=NNC(=O)c2ccc(CSc3nc4ccccc4[nH]3)cc2)ccc1O	-18	0.66
CN(C)c1nc(NN=Cc2ccc(Cl)c([N+](=O)[O-])c2)nc(Nc2ccc(F)cc2)n1	4.1	0.74
COc1ccc(C=NNC(=O)c2ccccc2OC)cc1COc1ccccc1[N+](=O)[O-]	3.7	0.7
CC(=NNC(N)=S)c1ccc(-n2ccnc2)cc1	4.2	0.66
COc1ccc(C=NNC(=O)c2cccnc2)cc1COc1ccc([N+](=O)[O-])cc1	2.3	0.67
CC(=NNc1nc(-c2ccccn2)nc2ccccc12)c1ccc(F)cc1	8.0	0.63

Shown with the structure last: 7 of the compounds above.
UCH37 DUB inh	E coli growth	compound
1.4	0.6	Cc1ccc(C2CC2C(=NO)c2ccc(F)cc2)cc1 (stereo unspecified)
0.7	0.68	CN1CCN(c2ccc([N+](=O)[O-])cc2C=NNC(=O)c2cccc([N+](=O)[O-])c2)CC1
1.9	0.71	C=CCc1cccc(C=NNC(=O)C(C)Nc2cccc(C)c2)c1O (stereo unspecified)
5.7	0.75	Fc1ccc(C=Nc2c(-c3ccc(F)cc3)nc3n2CCS3)cc1
-41	0.68	CC(Oc1cccc(Cl)c1)c1ccnc2nc(N=CN(C)C)nn12 (stereo unspecified)
6.5	0.69	CC1SC(=NN=Cc2ccco2)N(Cc2ccccc2)C1=O (stereo unspecified)
-18	0.66	COc1cc(C=NNC(=O)c2ccc(CSc3nc4ccccc4[nH]3)cc2)ccc1O

Continued:
Compound	UCH37 DUB inh	E coli growth
CC(C)(C)C(COc1ccccc1[N+](=O)[O-])=NO	1.0	0.63
O=C(CNc1cccc(C(F)(F)F)c1)NN=Cc1cccc(Br)c1	1.0	0.64
NC(=NOC(=O)c1ccco1)c1cccc([N+](=O)[O-])c1	5.6	0.62
Nc1nnnn1N=Cc1ccc(F)cc1	4.6	0.65
CCc1ccc(C=NNC(=O)C(=O)NCCCN2CCOCC2)cc1	0.5	0.68
Cc1cc(NN=Cc2ccc(F)cc2)nc(-n2nc(C)cc2C)n1	2.2	0.64
CCOc1ccc2c(c1)C(=NN1C(=O)c3ccccc3C1=O)C(=O)N2	2.0	0.68
N#Cc1c(N=Cc2cccnc2)sc2c1CCCC2	7.0	0.68
CC12CN3CCN(CC(C3)C1=NN=C1C3CN4CCN(C3)CC1(C)C4)C2	4.3	0.71
Cc1nc(N)sc1C(=O)NN=Cc1ccco1	2.0	0.66
CC(CC(=O)Nc1ccc(Cl)c(C(F)(F)F)c1)=NNC(=O)c1cnccn1	2.9	0.69
O=C(CNC(=O)c1ccc(F)cc1)NN=Cc1cc(Br)ccc1OC(=O)/C=C/c1ccco1	3.1	0.72
CCOc1ccc(CC(=O)NN=C(C)c2cccnc2)cc1	0.9	0.65
FC(F)(F)c1ccccc1NC(=S)NN=C1CC2CC=CC12 (stereo unspecified)	6.4	0.7
CC(=NNC(=O)c1nnn(-c2nonc2N)c1-c1ccc(Cl)c(Cl)c1)c1ccncc1	2.4	0.68
O=[N+]([O-])c1cccc(C=NNc2nc(NCc3ccccc3)nc(N3CCOCC3)n2)c1	3.0	0.69
COc1ccccc1C=NNC(=O)CCn1cnc2ccccc21	-0.9	0.74
CC(C)(C)c1cc[n+](-c2[nH]c(=O)sc2C=NNC([S-])=Nc2ccccc2)cc1	14	0.65
CC12CCC(CC1=N/N=C1/NC(=O)/C(=C\c3cccc(Br)c3)S1)C2(C)C (stereo unspecified)	7.8	0.73
CN(C)c1ccnc(-n2cccc2C=NOCc2ccc(F)cc2Cl)c1C#N	2.1	0.73
O=[N+]([O-])c1cccc(C=NNc2nccnc2Cl)c1	9.3	0.64
CNC(=O)NN=C(N)c1ccccn1	1.3	0.64
C/C(C=NNC(=O)c1cc(-c2ccc(C)s2)[nH]n1)=C\c1ccccc1	1.3	0.72
CC(=NNC(=O)c1ccccc1)c1cccc(Br)c1	-0.8	0.65
S=c1[nH]nc(-c2cc(-c3ccccc3)n[nH]2)n1N=Cc1ccc(Cl)c(Cl)c1	2.5	0.69
COc1ccc(N2CCN(C(=NS(=O)(=O)c3ccccc3)Nc3nc(C)cc(C)n3)CC2)cc1	1.3	0.73
O=C(CCC(=O)Nc1ccc(Br)cc1)NN=Cc1ccccc1F	2.0	0.69
COc1cc(C=NNC(=O)c2cccc(NC(=O)c3ccccc3C)c2)ccc1O	4.1	0.66
C=CCn1c(=C(C#N)c2nc3ccccc3n2C)sc(=Cc2cc(OC)c(OC)c(OC)c2)c1=O	3.7	0.71
O=C(NN=Cc1ccncc1)c1ccc(COc2cccc3cccnc23)cc1	-0.4	0.73
COc1cc(C=NNc2ccc(C(F)(F)F)cn2)ccc1O	5.7	0.65
CC1(C)CC(=O)CC(=NNC(=O)C2CCN(S(=O)(=O)c3cccs3)CC2)C1	4.8	0.74
COc1ccc2c(c1)c(C(=O)NN=Cc1cn(C)c3ccccc13)c(C)n2C	9.5	0.65

Profiles as entered above:
O=C(CCC(=O)Nc1ccc(Br)cc1)NN=Cc1ccccc1F as listed: UCH37 DUB inh = 2.0; E coli growth = 0.69
CC(=NNC(=O)c1ccccc1)c1cccc(Br)c1 as listed: UCH37 DUB inh = -0.8; E coli growth = 0.65
COc1ccc(N2CCN(C(=NS(=O)(=O)c3ccccc3)Nc3nc(C)cc(C)n3)CC2)cc1 as listed: UCH37 DUB inh = 1.3; E coli growth = 0.73

Random excerpt: two compounds from above
Compound	UCH37 DUB inh	E coli growth
C(=Nn1cnnc1)c1cn(Cc2ccccc2)c2ccccc12	0.0	0.69
Cc1nn(-c2ccccc2)c(Oc2ccc(F)cc2)c1C=Nn1cnnc1	1.9	0.73
